# TRPML1 inh = qHTS for Inhibitors of the Human Mucolipin Transient Receptor Potential 1 (TRPML1); TRPML1-inducible cells, Ca2+ dye fluorescence, FDSS; active compounds read low; inhibition of EC80 agonist-evoked calcium signal; Mucolipin-1 (Homo sapiens), Q9GZU1; AID 624415, 2012; 390,000 compounds, 0.02% hits; activity change, negative = inhibition, % (no concentration beside the values); in the data active means activity change below about -50%; inconclusive means about -30% to -50%; inactive means above about -30%;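 also: stimulus is agonist 54-4 at its EC80 concentration; % is scaled to controls: 0 for no effect and ±100 for the full control effect; compound concentration not given in the record; the text of the record puts the active cut at -80%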
# Target sequence (Q9GZU1 whole entry, looked up): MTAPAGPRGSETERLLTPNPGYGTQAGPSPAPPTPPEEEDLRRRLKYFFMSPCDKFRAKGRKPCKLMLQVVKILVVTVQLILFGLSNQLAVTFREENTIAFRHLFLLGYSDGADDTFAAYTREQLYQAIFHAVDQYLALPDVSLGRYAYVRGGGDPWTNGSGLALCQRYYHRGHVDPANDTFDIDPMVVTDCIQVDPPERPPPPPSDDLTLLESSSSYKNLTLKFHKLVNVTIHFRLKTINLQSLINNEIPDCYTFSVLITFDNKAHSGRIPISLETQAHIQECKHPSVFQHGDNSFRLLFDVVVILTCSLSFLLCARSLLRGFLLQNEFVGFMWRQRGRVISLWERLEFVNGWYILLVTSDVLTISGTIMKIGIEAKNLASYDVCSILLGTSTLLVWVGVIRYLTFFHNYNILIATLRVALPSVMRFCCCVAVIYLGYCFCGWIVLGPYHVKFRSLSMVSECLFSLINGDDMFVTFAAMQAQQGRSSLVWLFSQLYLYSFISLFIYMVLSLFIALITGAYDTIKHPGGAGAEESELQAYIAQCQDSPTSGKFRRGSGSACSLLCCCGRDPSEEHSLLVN
#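 TRPML1-DL cells, Tet-induced overnight (~16 h, 37 °C) at 1,500 cells/well, were loaded with Ca8 no-wash dye plus quencher for 45-90 min at room temperature. Compounds were pinned during FDSS kinetic reading; agonist 54-4 at EC80 (4 uM final) then added.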
# ClpP mod = qHTS Assay for Activators of ClpP | purified B. subtilis ClpP, FRET peptide cleavage, 20 min | 340,000 compounds, 1.9% hits | ATP-dependent Clp protease proteolytic subunit (Bacillus subtilis (strain 168)), P80244 | Potency, µM (titrated, usually from 57.5 µM), inactives show at the highest dose activity change, negative = active | AID 651965, 2013; active = well fitted falling curve with a large enough effect; inconclusive = small, poorly fitted or top-dose-only effect; inactive = no such curve, though single readings can be large or run the other way; also: potency is read from the fitted curve at half-maximal effect; the source files actives as falling curves though it sought activators and does not explain the sign; nearly all actives have a fitted effect of over 65% in size; many hits overshoot -100%
# Target sequence (P80244 whole entry, looked up): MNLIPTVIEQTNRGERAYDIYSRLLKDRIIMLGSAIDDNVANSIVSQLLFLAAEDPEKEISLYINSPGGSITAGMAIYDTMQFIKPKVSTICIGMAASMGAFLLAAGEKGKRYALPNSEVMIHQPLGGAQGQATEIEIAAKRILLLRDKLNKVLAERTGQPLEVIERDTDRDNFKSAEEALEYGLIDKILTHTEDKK
#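 Purified B. subtilis ClpP, 10 microg/mL final in Tris/HCl pH8 with KCl, BSA, glycerol and Tween-20, cleaved an Abz/nitrotyrosine-quenched decapeptide. Fluorescence (ex 320, em 430) was read at 0 and 20 min at room temperature. Delta was normalized to 5.8 microM ADEP and DMSO/no-enzyme controls.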
# Menin-MLL FL inh = qHTS Assay for Inhibitors Targeting the Menin-MLL Interaction in MLL Related Leukemias: Competition With Fluorescein Labeled MLL-derived Peptide; Fluorescence polarization, fluorescein-MLL peptide displacement from menin; FP activity change, % at 61.4 µM; 290,000 tested, under 10 active; AID 1766, 2009; inconclusive = falling polarisation curve, or a change in total fluorescence; inactive = total fluorescence flat and polarisation flat or rising; no compound was filed as active; the % refers to the polarisation; negative = inhibition;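 also: % of control where 0% means no effect; inhibitors lower the polarisation; unlabelled MLL peptide was the positive control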
# gsp antag = qHTS for Antagonists of gsp, the Etiologic Mutation Responsible for Fibrous Dysplasia/McCune-Albright Syndrome: qHTS. gsp-mutant cells, cAMP HTRF, 30 min; control for the full effect not named in the record. Potency, µM (series often up to 76.9 µM), for inactives: top-dose activity change, negative = inhibition, hits mostly inhibitors. AID 624288, 2012. 340,000 compounds, 0.4% hits; active = falling curve of any shape with a large fitted effect; inconclusive = falling curve, mostly with a smaller effect; inactive = flat or rising curve; cell line not stated here;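 also: intracellular cAMP measured with PDE inhibitor Ro 20-1724 present during compound exposure; potency is read from the fitted curve at half-maximal effect; % is scaled to controls: 0 for no effect and ±100 for the full control effect; nearly all actives have a fitted effect of over 65% in size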
#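 Cells in G418 medium, seeded 16-24 h, 37C; buffer exchange to DPBS + 1 mM CaCl2, 0.5 mM MgCl2, 0.05% BSA; cpds in DMSO + […] (300 uM stock), 30 min 37C; HTRF cAMP detection.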
# gsp agonist = qHTS for Agonist of gsp, the Etiologic Mutation Responsible for Fibrous Dysplasia/McCune-Albright Syndrome: qHTS; gsp mutant cells, cAMP HTRF, 30 min; control for the full effect not named in the record; 340,000 compounds, 0.13% hits; Potency, µM (doses to about 76.9 µM), without a hit: at the top dose activation (cAMP increase), usual class: activators; active = well fitted activation curve with a large enough effect; inconclusive = small, poorly fitted or top-dose-only effect, or another doubt; inactive = no such curve, though single readings can be large or run the other way; cell line not stated here;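 also: phosphodiesterase inhibitor Ro 20-1724 added with compounds to block cAMP breakdown; potency is read from the fitted curve at half-maximal effect; nearly all actives have a fitted effect of over 60% in size; about a fifth of the inactives were tested at one dose only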
#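 Cells stably selected in G418 were plated at 2000/well, grown 16-24 hr, then given compounds in DMSO with the PDE inhibitor […] (300 uM solution added) for 30 min at 37C; cAMP was read by HTRF.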
# TRPML1 agonist = qHTS for Agonists of the Human Mucolipin Transient Receptor Potential 1 (TRPML1) | activation, % (concentration not given with the values) | Mucolipin-1 (Homo sapiens), Q9GZU1 | TRPML1-expressing cells, Ca2+ dye fluorescence, FDSS; host cell line not named in the record; reference of the full effect not given here | 410,000 compounds, 0.12% hits; in the data active = activation above about 50%; inconclusive = about 30% to 50%; inactive = below about 30%; also: 0% is about no effect; the text of the record puts the active cut at 80%
#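 Tet-induced TRPML1-DL cells, 1,500 per well, cultured overnight, were loaded with a no-wash Ca2+ dye for 45–90 min. Calcium fluorescence was recorded on the FDSS for 110 s after compound addition, before the EC80 agonist (4 uM 54-4) was added.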
# Starred values were filed as active, the others as inactive; ? = inconclusive; nt = no result given; & = joins results of further samples; [ ] = remark or other dose.
SMILES,TRPML1 inh,ClpP mod,Menin-MLL FL inh,gsp antag,gsp agonist,TRPML1 agonist
COc1ccc(N2CCN(CC(=O)Nc3ccccc3SC)CC2)cc1,2,nt,-1.8,-14%,-25%,0.7
O=c1[nH]c2cc3c(cc2cc1CN(Cc1cccs1)Cc1nnnn1Cc1ccco1)OCCO3,3,?,?,0%,4%,0.8
Cc1noc(C)c1CSc1nc2ccccc2c(=O)n1-c1ccc(Cl)cc1,1,-3.7%,3.2,-8%,3%,3.0
CC(C)C[C@H](NC(=O)c1nc[nH]c1C(=O)N1CCC(C)CC1)C(=O)OC(C)(C)C,-9,-3.1%,1.8,9%,nt,0.2
O=[N+]([O-])c1ccc2nc(-[n+]3c(-c4ccccc4)cc(-c4ccccc4)cc3-c3ccccc3)[nH]c2c1,31,-2.1%,nt,-19%,1%,1.4
CC(C)OCCCNC(=O)c1ccc(N(C)S(C)(=O)=O)cc1,-4,0.0%,2.3,4%,-22%,-0.7
CCCCCCCCCCCCC(=O)CCCCC(=O)O,-8,-0.3%,-9.2,5%,-81%[inhibitor],0.0
N#Cc1cc2sc3nnc(-c4ccncc4)n3c2cc1C#N,1,-27%,2.4,17%,?,2.1
CCC(C)NC(=O)c1ccc(NC(=O)C2CCCO2)cc1 (stereo not drawn),-21,3.0%,-4.1,8%,4%,-0.3
Cc1ccccc1NC(=O)c1ccc2nc(N3CCOCC3)sc2c1,-10,-2.9%,7.8,-14%,-40%[inhibitor],-0.6
COc1ccc(/C=C/C(=O)NNC(=O)C(C)Oc2ccccc2F)cc1OC (stereo not drawn),35,-26%,nt,9%,6%,-0.5
CCOC(=O)c1cccc(NC(=O)C2CCCN(c3nnc(C)c4c(C)n(-c5ccccc5)nc34)C2)c1 (stereo not drawn),28,-6.9%,nt,nt,nt,0.7
CC1CN(S(=O)(=O)N2CCOCC2)CCN1S(=O)(=O)N1CCOCC1 (stereo not drawn),3,nt,-2.5,5%,11%,0.1
O=C(NNc1ccccc1Br)C(=O)n1ccc2ccccc21,-8,-1.0%,0.0,6%,-7%,-0.4
CCOc1ccc(/C=C2\SC(=S)N(CCC(=O)O)C2=O)cc1,-3,-0.7%,0.7,-18%,-1%,-0.7
CCC(C)NC(=O)c1ccc(N2CC3CC(C2)c2cccc(=O)n2C3)c(NC(=O)c2ccc(Br)o2)c1 (stereo not drawn),-5,0.9%,-0.3,-5%,?,-0.6
CC(OC(=O)c1cccc(S(=O)(=O)Nc2ccccc2F)c1)C(=O)NCc1ccc2c(c1)OCO2 (stereo not drawn),23,1.4%,-0.4,-8%,-5%,2.7
Fc1ccc(CNC2CCN(Cc3ccccc3)CC2)cc1,-7,-1.8%,-9.4,3%,1%,0.9
COC(=O)c1ccc(NS(=O)(=O)c2ccc(SC)cc2)cc1,0,0.4%,1.1,-6%,-34%[inhibitor],2.0
CCn1c2ccc(F)cc2c2nnc(NN)nc21,-4,-0.8%,-0.4,14%,12%,-0.3
O=C(COc1ccccc1/C=C1\SC(=O)NC1=O)Nc1ccc(F)cc1,11,nt,-1.9,-23%,-9%[15.4 µM],3.7
CN(C)c1ccc([N+](=O)[O-])cc1C(=O)O,-4,-1.9%,1.6,9%,5%,-0.4
Cc1ccc(C(=O)Nc2c3c(nn2C(C)(C)C)CS(=O)(=O)C3)cc1[N+](=O)[O-],17,-3.2%,-11,-10%,12%,0.0
O=C(Nc1ccc(F)cc1)Nc1ccc(N2CCOCC2)c2nonc12,-14,nt,-0.3,-3%,-30%[15.4 µM],3.0
Cc1cc(C)c2oc(-c3ccc(C)c(NC(=S)NC(=O)c4cccs4)c3)nc2c1,-5,-2.6%,-2.4,-1%,13%,-0.1
Fc1ccc2cnc(-c3ccccc3)c(-c3cc(C(F)(F)F)cc(C(F)(F)F)c3)c2c1,13,-7.9%,nt,7%,-6%,-0.8
O=C1N=C(N2C=CC(=C3C=CNC=C3)C=C2)/C(=C/N=NC(=O)c2ccccc2)S1,2,nt,-11,?,18%[15.4 µM],0.5
COc1ccc(S(=O)(=O)c2cn(C)c3ccc(C)cc3c2=O)cc1,5,-0.2%,nt,nt,nt,-1.2
COc1cc(OC)cc(-c2cc3ncccc3cn2)c1,-5,-0.7%,nt,-6%,nt,0.0
O=C(Nc1ccc(Nc2ccccc2)cc1)C(Cl)Cl,2,nt,5.4,-11%,-9%[15.4 µM],-0.2
CNc1cnn(-c2ccc(C)cc2)c(=O)c1Cl,38,-0.7%,2.1,7%,-32%[inhibitor],-0.9
CC1=C(C(=O)N(C)C)CC(CC(=O)NCCCN(C)C)C(=O)N1Cc1ccc(C(C)(C)C)cc1 (stereo not drawn),1,-0.2%,nt,nt,?,-0.2
CCN(CC(=O)NCc1ccncc1)S(=O)(=O)c1ccccc1,-14,nt,1.8,-1%,8%[15.4 µM],0.9
O=C(Nc1ccc(S(=O)(=O)NC2=NCCCCC2)cc1)c1ccccc1Cl,17,0.9%,7.6,-17%,-2%,0.2
COCCCNC(=O)CCn1c(=O)c2ccccc2n(CC(=O)Nc2c(C)cc(C)cc2C)c1=O,-10,1.1%,nt,nt,nt,-0.2
COc1ccccc1-c1nnc(SCc2ccccn2)n1C,-15,-3.0%,-0.5,3%,5%,-0.2
CN(C)S(=O)(=O)c1cccc(NC(=O)C(c2ccccc2)c2ccccc2)c1,8,nt,0.6,7%,-9%[15.4 µM],1.9
COc1ccc(OCC(=O)NCc2ccc(Cl)cc2)cc1,-6,nt,2.8,-1%,-32%,-0.7
COCCN1CN=C(Nc2nc3ccccc3s2)NC1,34,-1.2%,4.7,6%,?,-0.2
CC(C)c1ccc(NC(=O)C2CCN(c3ncnc4c3nc3n4CCCCC3)CC2)cc1,13,-0.4%,-0.2,1%,-5%,2.0
Cc1ccc(Cn2nc(C)c(/C=N/NC(=O)c3cccnc3)c2C)cc1,-9,nt,-1.4,11%,-2%[15.4 µM],-0.5
CCC(c1nnnn1Cc1ccc(F)cc1)N1CCN(C)CC1 (stereo not drawn),11,nt,0.3,2%,-29%,0.2
CCN1C(=O)c2ccc(C(=O)NCc3ccc4c(c3)OCO4)cc2C1=O,12,3.5%,1.9,4%,2%,-0.8
CCC(C)c1ccccc1NC(=O)C(C)OC(=O)CN1C(=O)NC(C)(C)C1=O (stereo not drawn),0,-2.6%,nt,11%,-52%[inhibitor],0.9
O=C(CSc1nc2ccccc2s1)N1CCCCC1,11,-0.3%,-2.1,3%,-14%,-0.2
CCOc1ccc(-c2c(C(=O)N/N=C/C3CC=CCC3)nnn2-c2nonc2N)cc1 (stereo not drawn),-17,-2.3%,nt,-11%,11%,-0.1
O=C(OCc1ccc(Br)cc1)c1cnc(Cl)c(Cl)c1,-3,nt,-0.2,-15%,-9%[15.4 µM],5.6
CC(=O)Nc1ccc(-n2c(CCC(=O)O)ccc2-c2ccc(C)cc2)cc1,-13,-7.7%,nt,nt,nt,0.7
Cc1cccc(N=Nc2c(O)[nH]c3ccc(Br)cc23)c1,28,-1.9%,?,6%,-34%[inhibitor],0.7
NC(=O)c1cc2ccccc2o/c1=N\NC(=O)c1ccco1,-6,-2.0%,14,?,-33%[inhibitor],-0.2
CCCn1nc2cc(C(=O)NC3CCc4ccccc43)ccc2c1OCC (stereo not drawn),39,3.6%,1.3,-2%,-8%,0.2
COc1cccc(NC(=O)C(CCSC)NC(=O)C2CCC(C)CC2)c1 (stereo not drawn),-20,1.8%,nt,nt,nt,0.7
O=Cc1cc(OCc2ccccc2)ccc1[B-](F)(F)F,18,?,nt,-4%,nt,5.1
CCCN1CCc2nc(SCC(=O)Nc3ccc(C)c(Cl)c3)[nH]c(=O)c2C1,-9&5,-11%&-0.2%,2.3,0%,0%,-0.5&-1.1
COc1ccccc1NC(=O)c1ccc(NC(=O)CSc2nc(N)cc(=O)[nH]2)cc1,-3,1.9%,nt,12%,-64%[inhibitor],0.4
COC(=O)[C@@]1(Cc2ccc(F)cc2)[C@H]2c3cc(C(=O)N4CCCC4)n(CCc4c[nH]c5ccccc45)c3C[C@H]2CN1C(=O)c1ccccc1,nt,-5.8%,13,nt,nt,0.0
COc1ccc(C(CC(=O)O)NC(=O)c2ccco2)cc1 (stereo not drawn),-2,1.5%,6.0,5%,-36%[inhibitor],-1.1
CCCC(=O)N/N=C1\CS(=O)(=O)N(C)c2ccsc21,16,nt,4.2,5%,-11%,1.1
C/C(N)=C(/C#N)C(=O)COC(=O)CNS(=O)(=O)c1ccc(C)cc1,12,nt,1.3,-7%,26%,0.3
O=C(O)c1cccnc1Cl,1,0.7%,5.3,9%,-16%,2.7

# The listing continues:
SMILES,TRPML1 inh,ClpP mod,Menin-MLL FL inh,gsp antag,gsp agonist,TRPML1 agonist
Cc1ccc2c(c1)CCCN2C(=O)NC1CCCCC1,6,1.0%,-4.7,5%,?,2.7
N#Cc1ccccc1NC(=O)COC(=O)CSc1nc2ccccc2o1,-21,-3.8%,-1.5,-3%,-14%,-0.1
CNC(=O)CN1C(=O)NC2(CCc3ccccc32)C1=O (stereo not drawn),2,0.6%,2.2,19%,-23%,-0.8
COc1ccc(-c2csc(CCN3N=C(C)CC3=O)n2)cc1,7,nt,-0.7,nt,-1%[15.4 µM],1.3
CC(=O)c1ccc(NC(=O)C(Cc2ccccc2)NS(=O)(=O)c2ccc3c(c2)CCC(=O)N3)cc1 (stereo not drawn),3,-9.0%,nt,nt,nt,-0.9
COc1ccccc1/C=C1\SC(=O)N(CC(=O)NCCCn2ccnc2)C1=O,10,-2.5%,0.2,8%,-4%,0.8
COc1cccc(CNC(=O)c2cc(-c3ccc(Cl)cc3)n[nH]2)c1,-23,-0.1%,nt,nt,nt,-0.4
OCC[C@H]1C[C@@H](O)[C@H](O)[C@]2(Cc3ccccc3CCO2)O1,-1,1.9%,nt,12%,nt,-0.4
O=C(O)/C(=C\c1cccs1)c1ccc(F)cc1,-17,0.5%,2.6,4%,28%,-1.1

# Three of the entries above in order of the gsp agonist value, falling.
mol	gsp agonist
O=C(O)/C(=C\c1cccs1)c1ccc(F)cc1	28%
COc1ccccc1/C=C1\SC(=O)N(CC(=O)NCCCn2ccnc2)C1=O	-4%
N#Cc1ccccc1NC(=O)COC(=O)CSc1nc2ccccc2o1	-14%

# High-throughput results (PubChem BioAssay)
